MT1-MMP act inh – MT1-MMP (human) activation inhibition. GFP/RFP ratio change, % at 20 µM. P50281. AID 651647. HT1080 RFP-PRO-GFP cells, GFP/RFP ratio fluorescence, overnight; percent of plate control window, DMSO zero. 360,000 compounds, 0.061% hits;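 active means GFP/RFP ratio change of at least 30% with cell ATP level not reduced by more than half and red fluorescence within 50% of control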; further: strong numbers were not always called active
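Assay system: RFP-PRO-GFP reporter HT1080 cells; read-out basis: GFP/RFP fluorescence ratio; benchmarks: DMSO wells and RFP-L50D-GFP cells; doses: 20 µM single dose, 1% DMSO; schedule: overnight cell settling, then overnight compound exposure, 37 °C, 5% CO2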
CSC inhib – blocks cancer stem cells; cancer stem cell-like cells viability, luminescence; inhibition, % at 7.5 µM; 300,000 compounds, 1.1% hits; AID 2717;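 active means mean at 75% or more and at least half the replicates too; tested in HMLE shEcad cells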;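 further: 0% = median of negative and 100% = median of positive control wells; the first replicate is given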
Yeast UUG start – modulators of start codon recognition fidelity in yeast. S. cerevisiae UUG-firefly luciferase reporter, luminescence/redox ratio. activity score, % at 18.7 µM. 350,000 compounds, 0.13% hits. AID 602363;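 active means replicate mean at a twofold rise or more, about +100% in these data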;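 further: firefly luciferase made from a UUG start codon reports start codon fidelity; reporter light over untreated wells divided by growth signal over untreated wells; some hits fall short of that in this replicate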
Rce1 inhib – inhibitors of yeast Ras-converting enzyme | Q03530 | yeast membranes, quenched prenylated peptide cleavage fluorescence | calls only | 290,000 compounds, 0.27% hits | AID 2563;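 active means fall in fluorescence gain of 50% or more versus controls, with final raw signal at or below 3038400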;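 further: plate controls were neutral control wells for no effect and wells lacking membranes for full effect; tested at 10 µM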
Target sequence (Q03530 whole entry, looked up): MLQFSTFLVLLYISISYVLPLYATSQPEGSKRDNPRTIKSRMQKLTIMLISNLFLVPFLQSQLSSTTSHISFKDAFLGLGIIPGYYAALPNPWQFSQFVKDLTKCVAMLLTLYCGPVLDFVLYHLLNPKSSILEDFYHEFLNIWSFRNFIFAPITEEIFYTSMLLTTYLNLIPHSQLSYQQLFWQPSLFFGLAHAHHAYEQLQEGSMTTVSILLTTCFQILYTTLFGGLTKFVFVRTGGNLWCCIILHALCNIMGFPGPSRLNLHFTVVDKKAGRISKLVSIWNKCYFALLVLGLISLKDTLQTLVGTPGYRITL
PABP FP inh – PABP-poly(A) binding inhibition; PABP-poly(A) RNA binding, fluorescence polarization; inhibition, % at 35 µM; 290,000 compounds, 1% hits;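 active means 50% or more with normal probe brightness, or confirmed in later tests; about a fifth of its hits are not listed in these tables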;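 further: calls also rest on retests at 20 µM and on dose response follow-up; controls were probe without protein and protein plus probe with vehicle; some compounds called inactive have numbers as strong as hits; many hits fall short of the cut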
eIF4H FP inh – inhibitors of RNA binding by human eIF4H. eIF4H fluorescence polarization binding assay. inhibition, % at 35 µM. 290,000 compounds, 0.94% hits;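 active means 50% or more with normal probe brightness, or confirmed in later tests; about a fifth of its hits are not listed in these tables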;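 further: calls also rest on retests at 20 µM and on dose response follow-up; 0% = protein and probe with vehicle and 100% = probe without protein; strong numbers were not always called active; many hits fall short of the cut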
Env fusion inh – inhibitors of HIV Env-mediated cell fusion. HeLa-JRFL Env/CEM21 cell fusion, luciferase. inhibition, % at 12.3 µM. 360,000 compounds, 1.1% hits. AID 651610;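 active means mean replicate inhibition score of at least 50 and every replicate individually at or above 50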;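 further: 0% = plate neutral controls and 100% = maraviroc near 300 nM; one replicate is shown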
eIF4H FP inh retest – further read-out of eIF4H FP inh, marked with its call; inhibition, %; compound at 20 µM; confirmation average;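 mean of two retest wells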
PABP FP inh retest – second read-out of PABP FP inh, no call of its own (marks repeat the call); inhibition, %; compound at 20 µM; confirmation repeats;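 mean of two retest wells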
MT1-MMP act inh RFP – second read-out of MT1-MMP act inh, no call of its own (marks repeat the call); RFP signal change, %; measured here: RFP expression control read;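 0 = vehicle wells; hits needed this value within 50% of zero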
Active calls of the source: *; i = inactive; · = no result given; + = active, no number. This is a subset. The share of hits here may be higher or lower than overall.

SMILES | MT1-MMP act inh | MT1-MMP act inh RFP | CSC inhib | Yeast UUG start | Rce1 inhib | PABP FP inh | eIF4H FP inh | Env fusion inh | others
COc1ccc(CCc2nnc(CCC(=O)NCC3CCCO3)o2)cc1 (stereo not drawn) | -4 | 2 | 0 | -7 | i | -2 | -4 | -13
C=C(C)Cn1c(SCC#N)nc2ccccc2c1=O | 8 | -2 | 7 | -15 | i | 3 | 3 | ·
COc1ccccc1CNC(=O)CCC(=O)N1CCOc2ccc(C)cc21 | 3 | 2 | -16 | 0 | i | -4 | -4 | -13
COc1ccc(C2=NS(=O)(=O)N(C)C(C(=O)N3CCCCC3)=C2)cc1 | -7 | -3 | -12 | -9 | i | -1 | -5 | -1
CC(C)C[C@@H](CN(N=O)[C@@H](Cc1ccccc1)CN(C)N=O)N(CCc1ccccc1)N=O | -5 | -6 | 16 | -16 | i | 1 | -7 | 22
CCCCOc1ccc(N(CC(=O)NCc2ccco2)C(=O)CCC(=O)Nc2nccs2)cc1 | 0 | -2 | · | -15 | i | 8 | 2 | -3
CCN(CCCNC(=O)CCn1c(=O)[nH]c2ccsc2c1=O)c1ccccc1 | 2 | -4 | -8 | -20 | i | 27 | 59 | 10 | eIF4H FP inh retest=-6;PABP FP inh retest=10
Cc1cccc(NC(=O)c2cccc(S(=O)(=O)N(C)c3ccccc3)c2)n1 | 3 | -5 | · | -7 | · | · | · | -1
Cc1ccc(S(=O)(=O)N(C)c2ccc(C(=O)NCc3cccnc3)cc2)cc1 | -1 | -5 | 45 | -4 | i | 9 | -6 | -3
Nc1nc(NCCO)nc(N2CCCCCC2)c1[N+](=O)[O-] | -3 | 0 | -2 | · | i | -7 | -6 | -11
CC(Oc1cccc2c1OC(C)(C)C2)C(=O)O (stereo not drawn) | 1 | 5 | · | 4 | i | 2 | 0 | ·
CSc1nc(N)nc(SCC(=O)c2ccc(C)cc2)c1C#N | 6 | -3 | 38 | -23 | i | 2 | -11 | ·
C/C(=N\Nc1ccc(F)cc1)c1ccncc1 | -6 | -1 | 23 | · | i | -9 | -11 | -14
NC(=O)CC(NC(=O)Cc1ccc(Br)cc1)c1ccc(NCCN2CCOCC2)c([N+](=O)[O-])c1 (stereo not drawn) | 7 | 7 | -4 | -25 | i | 13 | -2 | 4
CCN(CC)c1ncnc2c1ncn2[C@H]1CN(Cc2ccc(-c3ccccc3)cc2)C[C@@H](CO)O1 | -3 | -12 | · | 11 | · | · | · | -1
Cc1cc(N2CCN(C)CC2)nc2ccc(NC(=S)NCCCN3CCN(C)CC3)cc12 | 1 | -1 | -6 | -14 | i | -2 | -3 | 23
CC(C)Cn1c(O)c(N=NC(=O)c2cccc(S(=O)(=O)N3CCCCC3)c2)c2ccccc21 | -5 | -19 | 91* | -17 | i | -10 | -3 | ·
CSc1ccccc1NC(=O)COC(=O)CSc1ccc(C)cc1 | 0 | 1 | 12 | -8 | i | · | · | 1
CCOC(=O)c1cnn(-c2ccccn2)c1N | 3 | 1 | 23 | -10 | i | -4 | -7 | ·
CCCNC(=O)NC1CCCCCCC1 | -2 | 4 | -27 | · | i | 12 | -3 | -3
N#CC1=C(N)N(c2ccccc2)C(c2ccccc2)C1(C#N)C#N (stereo not drawn) | 2 | -8 | -9 | · | i | -2 | -2 | ·
Cc1sc2c(c1C)c(=O)n(-c1ccc(F)cc1)c(=O)n2CC(=O)NCc1ccco1 | 18 | 8 | · | -10 | · | -5 | 8 | -50
CCOc1ccccc1CN1CCN(Cc2cc3ccccc3[nH]2)CC1CCO (stereo not drawn) | -5 | -2 | 5 | -9 | i | -6 | 19 | 11
CCCCN(C=O)c1c(CC)nc2ccc(C(=O)N(CC)CCN(C)C)cn12 | -4 | 3 | · | -24 | · | · | · | -10
COC(=O)c1cc(N2C(=O)C3C(C2=O)C2(C)C=CC3(C)O2)ccc1Cl (stereo not drawn) | · | · | 20 | · | i | -1 | -4 | ·
C/C(=N\NC(=O)C1COc2ccccc2O1)c1cccs1 (stereo not drawn) | -2 | 1 | -12 | -5 | i | -14 | -2 | ·
Cc1ccc(S(=O)(=O)/N=C(/Nc2cccc3ccccc23)c2ccc(F)cc2)cc1 | -1 | -1 | 14 | -2 | i | 0 | -1 | 11
O=C(Nc1ccc(Cl)c([N+](=O)[O-])c1)c1cnccn1 | 4 | 6 | -12 | · | i | -6 | 85 | 6 | eIF4H FP inh retest=3;PABP FP inh retest=2
COc1cc(OC)c(C(=O)NCCCn2ccnc2)cc1OC | 0 | 4 | -12 | -18 | i | -2 | -2 | -4
CCc1ccc(S(=O)(=O)Nc2cc(SCC(=O)O)c(O)c3ccccc23)cc1 | -8 | 0 | 114* | · | i | 16 | 7 | 9
O=Cc1c(N2CCCCC2)nc2ccccn2c1=O | 2 | 1 | 6 | -5 | i | 5 | 1 | 13
COCCNC(=O)CSc1nc2scc(-c3ccccc3)c2c(=O)[nH]1 | -2 | -2 | 17 | · | i | 13 | -1 | 3
CCc1nnc(NS(=O)(=O)c2ccc(NC(=O)c3ccccc3OC)cc2)s1 | -1 | 0 | 1 | -1 | i | 4 | -18 | 1
CN(Cc1cc(=O)n2ccsc2n1)c1ccccc1 | -4 | 0 | 3 | · | i | -2 | 4 | 7
N#C/C(=C\c1ccccc1O)C(=O)Nc1ccccn1 | 1 | 2 | 2 | -13 | i | -11 | 0 | 11
CCn1nc(C(=O)NCCc2ccc(S(N)(=O)=O)cc2)c2ccccc2c1=O | -2 | 3 | · | -1 | · | 0 | 0 | 15
CSc1nccn1C(=O)c1ccccc1[N+](=O)[O-] | 5 | 2 | 11 | -17 | i | -2 | -7 | 1
COc1cc2cc(C)c(SCC(=O)N3CCN(C(=O)c4ccco4)CC3)nc2cc1OC | 0 | -4 | -4 | 11 | i | 2 | -5 | 39
CC1(C)C(=O)OC(C(=O)c2ccccc2)C(C)(C)C1=O (stereo not drawn) | 0 | -1 | -13 | -13 | i | 7 | -17 | -73
CCN1C(=O)CS/C1=N\S(=O)(=O)c1ccc(C)cc1 | 3 | 1 | -21 | -18 | i | -19 | -7 | -10
C/C(=N\NC(=O)C1CC1(c1ccccc1)c1ccccc1)c1cccc([N+](=O)[O-])c1 (stereo not drawn) | -2 | -4 | 0 | -7 | i | -5 | -4 | 25
C=CCn1c(N)c(C(=O)OCCC)c2nc3ccccc3nc21 | -12 | -3 | 2 | -17 | i | 4 | 6 | ·
CC(C)C(=O)NCCn1ccc2ccccc21 | -3 | 1 | -4 | 3 | i | 2 | 3 | ·
O=C(C1CCN(S(=O)(=O)N2CCOCC2)CC1)N1CCN(c2ccccc2)CC1 | 2 | 2 | -1 | 11 | i | 0 | 4 | ·
O=C(COC(=O)c1ccc2c(c1)OCO2)NCc1ccc2c(c1)OCO2 | -3 | 3 | 4 | -14 | i | 3 | -7 | -231
COCCNC(=O)CSc1nnc2c(Cl)cc(Cl)cn12 | 2 | 2 | -10 | · | i | -10 | -4 | ·
Cc1cc(/C=C2\NC(=O)NC2=O)c(C)n1-c1ccc(N2CCOCC2)cc1 | 6 | 5 | -3 | -11 | i | 8 | 2 | 11
N#Cc1ccc(CSc2nnc(-c3c[nH]c4ccccc34)n2-c2ccccc2)cc1 | 1 | -4 | -10 | · | + | -1 | 21 | 16
O=C1CC(c2cc3c(cc2Br)OCO3)C2=C(CCCC2=O)N1 (stereo not drawn) | 0 | 9 | -12 | · | i | -1 | -8 | ·
CC(C)(C)C(=O)N1CCN(c2ccc(NC(=O)c3ccc4c(c3)OCCO4)cc2)CC1 | -1 | -18 | -5 | -3 | i | -5 | -8 | 37

Three structures already listed, ordered by molar mass, lowest first.
SMILES | MT1-MMP act inh | MT1-MMP act inh RFP | CSC inhib | Yeast UUG start | Rce1 inhib | PABP FP inh | eIF4H FP inh | Env fusion inh | others
O=C(COC(=O)c1ccc2c(c1)OCO2)NCc1ccc2c(c1)OCO2 | -3 | 3 | 4 | -14 | i | 3 | -7 | -231
O=C1CC(c2cc3c(cc2Br)OCO3)C2=C(CCCC2=O)N1 (stereo not drawn) | 0 | 9 | -12 | · | i | -1 | -8 | ·
C/C(=N\NC(=O)C1CC1(c1ccccc1)c1ccccc1)c1cccc([N+](=O)[O-])c1 (stereo not drawn) | -2 | -4 | 0 | -7 | i | -5 | -4 | 25

(next part)
SMILES | MT1-MMP act inh | MT1-MMP act inh RFP | CSC inhib | Yeast UUG start | Rce1 inhib | PABP FP inh | eIF4H FP inh | Env fusion inh | others
CCCCOc1ccccc1N1CCN(CCCN2C(=O)C3CCCN3C2=O)CC1 (stereo not drawn) | -3 | 1 | -5 | -10 | i | 5 | -10 | -4
c1ccc(CNc2nc(CN3CCOCC3)nc3scc(-c4ccccc4)c23)cc1 | 2 | 3 | 70 | -13 | i | -6 | -5 | 18
COc1ccc(/C(O)=C2/C(=O)C(=O)N(CCN(C)C)C2c2ccc(F)cc2)cc1Cl (stereo not drawn) | 3 | -2 | -9 | -10 | i | 32 | -3 | -14
CC1CCc2c(sc3nc(C(C)(C)C)nc(N4CCN(C(=O)CCl)CC4)c23)C1 (stereo not drawn) | -6 | -10 | 63 | -37 | i | 6 | 5 | 6
Cn1c(NC(=O)c2cccc(Cn3cc(Cl)cn3)c2)nc2ccccc21 | 10 | -6 | 9 | 3 | i | 0 | -3 | -12
CC(C(=O)Nc1ccccc1-c1ccccc1)N1CCCCC1 (stereo not drawn) | 1 | 0 | -10 | 1 | i | 13 | -10 | ·
Cn1cnnc1SC/C(O)=C(\C#N)c1nc2ccccc2[nH]1 | -1 | 3 | -1 | · | i | 3 | 0 | -9
COC(=O)C(Cc1csc2ccc(Cl)cc12)NC(=O)c1ccc(Cl)cc1 (stereo not drawn) | 3 | 0 | -5 | · | i | -3 | -4 | 34

Structural class, those above containing a thiophene ring, fused or not (7)
SMILES | MT1-MMP act inh | MT1-MMP act inh RFP | CSC inhib | Yeast UUG start | Rce1 inhib | PABP FP inh | eIF4H FP inh | Env fusion inh | others
CCN(CCCNC(=O)CCn1c(=O)[nH]c2ccsc2c1=O)c1ccccc1 | 2 | -4 | -8 | -20 | i | 27 | 59 | 10 | eIF4H FP inh retest=-6;PABP FP inh retest=10
Cc1sc2c(c1C)c(=O)n(-c1ccc(F)cc1)c(=O)n2CC(=O)NCc1ccco1 | 18 | 8 | · | -10 | · | -5 | 8 | -50
C/C(=N\NC(=O)C1COc2ccccc2O1)c1cccs1 (stereo not drawn) | -2 | 1 | -12 | -5 | i | -14 | -2 | ·
COCCNC(=O)CSc1nc2scc(-c3ccccc3)c2c(=O)[nH]1 | -2 | -2 | 17 | · | i | 13 | -1 | 3
c1ccc(CNc2nc(CN3CCOCC3)nc3scc(-c4ccccc4)c23)cc1 | 2 | 3 | 70 | -13 | i | -6 | -5 | 18
CC1CCc2c(sc3nc(C(C)(C)C)nc(N4CCN(C(=O)CCl)CC4)c23)C1 (stereo not drawn) | -6 | -10 | 63 | -37 | i | 6 | 5 | 6
COC(=O)C(Cc1csc2ccc(Cl)cc12)NC(=O)c1ccc(Cl)cc1 (stereo not drawn) | 3 | 0 | -5 | · | i | -3 | -4 | 34
